# rRNA inh HTS = reduced GFP signal of wild-type E. coli, primary screen, bacterial rRNA inhibitor project, GFP/RFP fluorescence, OD600, single point | E. coli WT GFP vs humanized-ribosome RFP mutants, 24 h; hits give low values; DMSO median 0, no signal -100 | GFP signal change (wild-type ribosome), % (concentration not given with the values) | 350,000 tested, 1.6% active | AID 720706, 2013;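 active = significant combined selectivity score with lowered wild-type GFP, culture density cut under 30%, mutant RFP and density less affected; inactive = any of these conditions unmet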; note: one replicate is shown; some compounds called inactive have numbers as strong as hits
# FGF22 binding = binders of human FGF22 protein, primary screen, FGF22 synaptogenesis inhibitor project, biophysical, thermal shift, single point | Fibroblast growth factor 22 (Homo sapiens), Q9HCT0 | recombinant FGF22 thermal shift, SYPRO orange fluorescence; percent of sucrose octasulfate shift, DMSO zero | calls only at 9.99 µM | 340,000 tested, 1.5% active;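 active = melting point raised past a set limit in the mean and every replicate; three in four hits are not shown here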
# Target sequence (Q9HCT0 whole entry, looked up): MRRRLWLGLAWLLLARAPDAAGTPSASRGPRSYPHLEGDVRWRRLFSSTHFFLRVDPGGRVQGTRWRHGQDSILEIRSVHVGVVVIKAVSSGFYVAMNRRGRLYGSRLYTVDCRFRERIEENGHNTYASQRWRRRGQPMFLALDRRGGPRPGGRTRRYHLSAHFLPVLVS
# MLL AF4-AF9 inh = inhibitors of AF4 peptide binding to AF9, primary screen, biochemical, AlphaScreen, biotin-AF4 peptide, FLAG-AF9, single point; inhibition, % at 10 µM; 350,000 tested, 0.47% active; AID 651704, 2012;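 active = every replicate reaching a set inhibition limit, whatever the replicate mean, cut at about 25% in these data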;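 note: 0% = plate neutral control median and 100% = total signal loss; the record names both 10 and 1 µM as test concentration; the first replicate is given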
# Target sequence (P42568 whole entry, looked up): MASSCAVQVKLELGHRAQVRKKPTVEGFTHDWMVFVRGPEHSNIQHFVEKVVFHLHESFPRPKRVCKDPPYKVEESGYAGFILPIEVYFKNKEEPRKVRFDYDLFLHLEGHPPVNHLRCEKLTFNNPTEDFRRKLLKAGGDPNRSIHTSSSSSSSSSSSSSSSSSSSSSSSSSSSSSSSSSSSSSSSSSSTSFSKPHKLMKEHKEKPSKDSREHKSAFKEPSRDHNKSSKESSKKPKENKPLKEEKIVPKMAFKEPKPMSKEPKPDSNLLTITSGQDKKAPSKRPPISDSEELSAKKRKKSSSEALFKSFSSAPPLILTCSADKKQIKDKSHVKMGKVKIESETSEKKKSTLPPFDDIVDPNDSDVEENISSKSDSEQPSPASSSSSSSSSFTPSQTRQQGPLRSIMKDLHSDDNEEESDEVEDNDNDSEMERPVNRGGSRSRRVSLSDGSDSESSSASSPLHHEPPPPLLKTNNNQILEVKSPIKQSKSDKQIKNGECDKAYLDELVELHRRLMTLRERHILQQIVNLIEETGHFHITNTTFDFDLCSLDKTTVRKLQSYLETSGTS
# rRNA inh HTS OD600 = second read-out of rRNA inh HTS, no call of its own (marks repeat the call); OD600 change, %; measured here: OD600 growth;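 optical density of the mix in the first replicate; 0 = DMSO median and -100 = no signal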
# rRNA inh HTS RFP = recorded beside rRNA inh HTS, whose call it bears; RFP signal change, %; measured here: RFP humanized mutant strains;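 first replicate; 0 = DMSO median and -100 = no signal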
# The depositor's hits bear a star; i = inactive; nt = not tested or not shown; + = active, no number; & = joins results of further samples. These rows are one share of the data (hit frequency here may not be typical).
SMILES,rRNA inh HTS,rRNA inh HTS OD600,rRNA inh HTS RFP,FGF22 binding,MLL AF4-AF9 inh
COc1ccc(CN(C)C[C@H]2Oc3ccc(NC(=O)Nc4ccc(OC)cc4)cc3C(=O)N([C@@H](C)CO)C[C@@H]2C)cc1,0,-3,-0.3,i,6.9
C[C@H]1CN([C@@H](C)CO)C(=O)c2cc(NC(=O)C3CC3)ccc2O[C@@H]1CN(C)S(=O)(=O)c1cccs1,-3,10,0.2,i,0.1
C[C@H]1CN([C@@H](C)CO)C(=O)c2cccc(NS(=O)(=O)c3cn(C)cn3)c2O[C@H]1CN(C)Cc1ccc(Oc2ccccc2)cc1,2,3,3.0,i,-2.3
Cc1nc2c(OCC(=O)c3ccc(F)cc3)cccn2c1N(C)Cc1cccs1,0,13,3.0,i,-0.7
COc1ccc(S(=O)(=O)N(C)C[C@@H]2OCCCC[C@@H](C)Oc3ccc(NC(=O)CCCN(C)C)cc3C(=O)N([C@@H](C)CO)C[C@@H]2C)cc1,3,6,-1.4,i,2.1
COCCNC(=O)C[C@@H]1C[C@@H]2c3cc(NS(=O)(=O)c4ccccc4)ccc3O[C@@H]2[C@H](CO)O1,1,4,-0.5,i,-1.4
CC(=O)N[C@H]1C=C[C@H](CC(=O)NCc2ccc(Cl)cc2)O[C@@H]1CO,2,4,-1.4,i,-0.9
CC(C)NC(=O)N(C)C[C@H]1OCCCC[C@H](C)Oc2ccc(NC(=O)c3ccccc3)cc2C(=O)N([C@@H](C)CO)C[C@H]1C,1,3,0.2,i,-2.3
COC(=O)[C@@H]1[C@@H](CO)[C@@H]2Cn3c(ccc(-c4ccc(OC)cc4)c3=O)[C@@H]2N1S(C)(=O)=O,-2,-1,-1.0,i,1.2
CSc1ccc(CN2CCC2(C)C(=O)NCc2cccs2)cc1 (stereo not given),-30,-61,1.7,i,-0.7
C[C@@H]1CN([C@H](C)CO)C(=O)c2cc(NC(=O)Cc3ccccc3)ccc2O[C@@H]1CN(C)S(=O)(=O)c1ccc(Cl)cc1,-4,-10,0.7,i,1.5
Cc1cccc(S(=O)(=O)N2CC[C@@H]3[C@@H](CO)Nc4ccc(C#Cc5cccc(F)c5)cc4[C@@H]32)c1,3,8,-1.3,i,-2.1
CCC(=O)N1C[C@H](C)[C@H](OC)CN(C)C(=O)c2cc(NC(=O)C3CC3)ccc2OC[C@H]1C,2,1,-2.4,i,0.7
C/C=C/c1ccc([C@H]2[C@@H](C#N)N(C(=O)Cc3ccccn3)[C@H]2CO)cc1,-2,-6,-2.2,i,0.8
Cc1cccc(-c2ccc([C@@H]3[C@@H](CO)N4CCCCN(CCC(F)(F)F)C[C@@H]34)cc2)c1,-60,-77,-14,i,15
Clc1ccc(Br)c(-c2nc3ccccc3[nH]2)c1,17,26,2.7,i,-8.3
O=C(C[C@H]1C[C@H](C(=O)N2CCOCC2)[C@@]2(CCC3CCCC3)c3[nH]c4ccc(Cl)cc4c3CCN2C1=O)NCC12CC3CC(CC(C3)C1)C2,23,18,-0.2,i,6.5
C[C@@H]1CN([C@H](C)CO)C(=O)c2cc(/C=C/c3ccccc3)cnc2O[C@@H]1CN(C)Cc1cccnc1,0,-7,1.8,i,2.2
C[C@H](CO)N1C[C@H](C)[C@@H](CN(C)C(=O)Nc2ccccc2)Oc2ccc(NC(=O)CCCCCC(=O)Nc3ccccc3N)cc2CC1=O,3,6,-1.1,i,0.4
C[C@H](CO)N1C[C@H](C)[C@@H](CN(C)Cc2ccc(-c3ccccc3)cc2)Oc2ccc(NC(=O)CCC(F)(F)F)cc2CC1=O,2,-17,6.2,i,3.0
CCCCNC(=O)CSc1nc2ccc(N3CCOCC3)cc2c(=O)n1Cc1ccc(OC)cc1,-8,-3,0.2,i,0.7
O=C(C[C@@H]1C[C@H]2c3cc(NC(=O)NC4CCCCC4)ccc3O[C@H]2[C@@H](CO)O1)NCc1ccccc1,0,-2,-1.2,i,-0.1
C/C=C/c1ccc2c(c1)O[C@@H](CN(C)C(=O)c1ccncc1)[C@@H](C)CN([C@@H](C)CO)S2(=O)=O,2,7,-1.8,i,-1.0
CC(C)Cn1cnc2c(SCc3ccccn3)nc(N)nc21,-7,5,0.3,i,-0.8
COCc1cn(CC[C@H]2CC[C@@H](NC(=O)Nc3ccc(Cl)cc3)[C@H](CO)O2)nn1,2,1,1.3,i,-0.5

# Six records picked at random from those above, as already listed:
SMILES,rRNA inh HTS,rRNA inh HTS OD600,rRNA inh HTS RFP,FGF22 binding,MLL AF4-AF9 inh
Cc1cccc(-c2ccc([C@@H]3[C@@H](CO)N4CCCCN(CCC(F)(F)F)C[C@@H]34)cc2)c1,-60,-77,-14,i,15
COCc1cn(CC[C@H]2CC[C@@H](NC(=O)Nc3ccc(Cl)cc3)[C@H](CO)O2)nn1,2,1,1.3,i,-0.5
O=C(C[C@@H]1C[C@H]2c3cc(NC(=O)NC4CCCCC4)ccc3O[C@H]2[C@@H](CO)O1)NCc1ccccc1,0,-2,-1.2,i,-0.1
O=C(C[C@H]1C[C@H](C(=O)N2CCOCC2)[C@@]2(CCC3CCCC3)c3[nH]c4ccc(Cl)cc4c3CCN2C1=O)NCC12CC3CC(CC(C3)C1)C2,23,18,-0.2,i,6.5
Clc1ccc(Br)c(-c2nc3ccccc3[nH]2)c1,17,26,2.7,i,-8.3
COCCNC(=O)C[C@@H]1C[C@@H]2c3cc(NS(=O)(=O)c4ccccc4)ccc3O[C@@H]2[C@H](CO)O1,1,4,-0.5,i,-1.4

# The list continues:
SMILES,rRNA inh HTS,rRNA inh HTS OD600,rRNA inh HTS RFP,FGF22 binding,MLL AF4-AF9 inh
CNC[C@@H]1Oc2c(NC(=O)Nc3ccc4c(c3)OCO4)cccc2C(=O)N([C@@H](C)CO)C[C@H]1C,0,1,-1.7,i,0.8
C[C@H](CO)N1C[C@H](C)[C@H](CN(C)C(=O)Nc2cccc3ccccc23)Oc2ccc(NC(=O)Cc3cn(C)c4ccccc34)cc2C1=O,-1,4,-1.7,i,1.0
CC(=O)NC(CCc1ccc(Cl)c(Cl)c1)c1cccc(O)c(=O)c1 (stereo not given),-47,-71,5.8,i,30*
Cn1cc(-c2csc(C(O)c3ccc(F)c(F)c3)n2)cn1 (stereo not given),-1,-2,-0.1,i,-3.7
CO[C@@H]1CN(C)C(=O)c2ccc(NC(=O)c3cnccn3)cc2OC[C@@H](C)N(C(=O)C2CC2)C[C@@H]1C,1,0,1.0,i,-0.3
Cc1ccc(S(=O)(=O)N(C)C[C@H]2Oc3cc(C#Cc4ccccc4)ccc3S(=O)(=O)N([C@@H](C)CO)C[C@H]2C)cc1,4,7,-1.3,i,-2.5
C[C@@H]1CN([C@H](C)CO)C(=O)Cc2cc(NS(=O)(=O)c3ccccc3)ccc2O[C@H]1CN(C)C(=O)NC1CCCCC1,2,11,-4.4,i,-1.6
O=C(Nc1ccc2nc(N3CCOCC3)sc2c1)c1cc2ccccc2o1,12,5,-1.6,i,0.2
O=C(Cn1cc(COc2ccc(Br)cc2[N+](=O)[O-])nn1)c1ccc(O)cc1,-14,4,8.0,+,-4.3
Nc1ccccc1CCc1ccccc1N,-2,0,-2.6,nt,-1.9
Cc1ncoc1C(=O)NC1CCCc2c1cnn2-c1cc(F)cc(F)c1 (stereo not given),-2,2,-4.2,i,-0.5
Cc1noc(C)c1S(=O)(=O)N(C)C[C@@H]1OCc2ccccc2-c2c(n(C)c3ccccc23)C(=O)N([C@H](C)CO)C[C@H]1C,3,1,2.4,i,-2.8
CCC(=O)N1CC2(CN(C(=O)Nc3ccccc3F)C2)c2c([nH]c3cc(OC)ccc23)[C@H]1CO,-4,-2,1.2,i,2.1
C[C@H](CO)N1C[C@H](C)[C@H](CN(C)S(=O)(=O)c2cccs2)Oc2ccc(NC(=O)Nc3ccc4c(c3)OCO4)cc2C1=O,2,-7,-1.9,i,9.2
COc1cccc(-c2cnc3c(c2)C(=O)N([C@H](C)CO)C[C@@H](C)[C@H](CN(C)Cc2cccnc2)O3)c1,-2,5,-6.4,i,1.0
O=C(Nc1cccc(S(=O)(=O)NC2=NCCCCC2)c1)c1ccc(Cl)cc1,-5,-8,-1.8,i,5.9
C[C@@H]1CN([C@@H](C)CO)S(=O)(=O)c2ccc(C#Cc3ccccc3)cc2O[C@@H]1CN(C)S(C)(=O)=O,2,-12,6.8,i,-0.9
O=C1C2CCCCN2C(=O)N1CCN1CCN(c2ccc(F)cc2)CC1 (stereo not given),11,8,0.2,i,0.7
Cc1noc(C)c1S(=O)(=O)N(C)C[C@@H]1OCCCC[C@H](C)Oc2ccc(NC(=O)Cc3ccccc3)cc2C(=O)N([C@H](C)CO)C[C@H]1C,-2,-1,1.7,i,-0.7
C[C@H]1CN([C@@H](C)CO)C(=O)c2cc(NS(=O)(=O)c3ccccc3)ccc2O[C@H]1CN(C)Cc1ccc(Oc2ccccc2)cc1,2,-21,7.3,i,4.1
O=C(COC(=O)/C=C/c1ccccc1[N+](=O)[O-])NC(=O)NC1CCCC1,-6,3,-3.8,i,2.9
COc1ccc(-c2ccc3c(c2)[C@@H]2[C@@H](CCN2C(=O)Cc2cccnc2)[C@@H](CO)N3C)cc1,-6,-10,-6.6,i,1.9
COc1cccc(C(=O)Nc2ccc3c(c2)C(=O)N(C)[C@H]2CC[C@H](CC(=O)NCC(F)(F)F)O[C@@H]2CO3)c1,-2,1,0.6,i,-0.8
COC(=O)[C@]12CCCCC=C1N(CCC1=CCCCC1)C(=O)[C@H](CC(=O)NCC13CC4CC(CC(C4)C1)C3)C2,15,7,1.9,i,-0.3
COCC(=O)N1[C@H](CO)[C@@H](c2ccc(-c3ccccc3)cc2)C12CN(C(C)=O)C2,2,7,0.2,i,0.1
SMILES,rRNA inh HTS,rRNA inh HTS OD600,rRNA inh HTS RFP,FGF22 binding,MLL AF4-AF9 inh
COc1cccc(CNC(=O)[C@@H]2[C@@H](CO)[C@@H]3Cn4c(ccc(C5=CCCC5)c4=O)[C@@H]3N2CC2CC2)c1,-1,-6,3.1,i,0.1
COc1ccccc1C#Cc1cnc2c(c1)C(=O)N([C@H](C)CO)C[C@H](C)[C@@H](CN(C)S(=O)(=O)c1cn(C)cn1)O2,0,10,-5.7,i,3.5&1.2
CCOC(=O)C1=CCC(c2cccc3ccccc23)N(S(=O)(=O)c2ccc(C)cc2)C1 (stereo not given),4,-1,1.4,i,-4.5
O=C1NC(=O)C2(CCCCC2C2CCCCC2)N1 (stereo not given),-12,-21,-0.3,i,-4.1
C[C@H]1CN([C@@H](C)CO)C(=O)c2cc(-c3ccc(C(=O)N(C)C)cc3)cnc2O[C@@H]1CN(C)C(=O)CN(C)C,3,8,-5.4,i,-8.8
CC(C)CNC(=O)C1(C)CCCN1C(=O)c1csnn1 (stereo not given),7,18,-1.0,i,0.7
CCN1C/C(=C\c2cccc([N+](=O)[O-])c2)C(=O)/C(=C/c2cccc([N+](=O)[O-])c2)C1,11,14,9.4,i,-14
COc1ncnc2c1ncn2CCCN(C)Cc1ccco1,3,9,-1.0,i,-1.3
CNC[C@H]1Oc2c(NC(=O)Nc3ccc(OC)cc3)cccc2C(=O)N([C@@H](C)CO)C[C@@H]1C,3,-3,-1.1,i,0.0
CCCNC(=O)N1[C@H](C#N)[C@@H](c2ccccc2-c2ccccc2F)[C@@H]1CO,-5,-19,1.0,i,-2.3
COc1ccc(NC(=O)Nc2ccc3c(c2)C(=O)N([C@H](C)CO)C[C@@H](C)[C@@H](CN(C)S(=O)(=O)c2cccs2)OCCCC[C@@H](C)O3)cc1,1,0,-1.7,i,-0.6
CC(C)(C)n1nnnc1C(C1CC1)N1CCN(C/C=C/c2ccccc2)CC1 (stereo not given),23,21,8.6,i,1.2
CC(C)C[C@@H](NC(=O)OC(C)(C)C)C(=O)N1O[C@]23C=C[C@]14C[C@@H](O)CC[C@]4(C)C2CC[C@]1(C)[C@@H]([C@H](C)/C=C/[C@H](C)C(C)C)CC[C@H]13 (stereo not given in full),-1,7,-0.6,i,8.7
CCN(C(=O)CN1CCCc2cc(C)ccc21)c1c(N)n(Cc2ccccc2)c(=O)[nH]c1=O,31,4,1.3,i,3.6
C[C@@H]1CN([C@H](C)CO)C(=O)c2cc(NS(=O)(=O)c3cn(C)cn3)ccc2O[C@H]1CN(C)Cc1ccncc1,-3,-1,-3.1,i,-3.5
CN1C(=O)c2cc(NS(=O)(=O)CC(F)(F)F)ccc2OC[C@H]2O[C@@H](CC(=O)Nc3cccc(F)c3)CC[C@@H]21,-9,-16,-1.9,i,-0.2
COC(=O)CCCC[C@@H]1O[C@H](CCc2ccccc2)CC2=C1C(=O)OC(C)(C)O2,-10,-8,-4.2,i,-4.1
O=C(Cc1ccccc1[N+](=O)[O-])NCC(=O)c1ccc2c(c1)OCO2,-1,3,-0.2,i,-2.2

# Screening data as filed in PubChem.
